MT1-MMP act inh – blockers of MT1-MMP proenzyme processing, primary screen, HT1080 RFP-PRO-GFP cells, GFP/RFP fluorescence. GFP/RFP ratio change, % at 20 µM. Matrix metalloproteinase-14 (Homo sapiens), P50281. GFP/RFP ratio fluorescence, overnight; percent of plate control window, DMSO zero. AID 651647, 2012. 0.061% of 360,000 active;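 active = GFP/RFP ratio change of at least 30% with cell ATP level not reduced by more than half and red fluorescence within 50% of control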; also: strong numbers were not always called active
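Compound: 20 µM single dose, 1% DMSO / System: HT1080 RFP-PRO-GFP cells / Controls: DMSO and RFP-L50D-GFP cell wells / Read-out basis: GFP/RFP fluorescence ratio / Schedule: overnight compound exposure at 37 °C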
Rce1 inh – yeast Rce1p protease inhibitors, primary screen, biochemical, fluorescence, cell-free homogeneous. CAAX prenyl protease 2 (Saccharomyces cerevisiae (strain ATCC 204508 / S288c)), Q03530. yeast membranes, quenched prenylated peptide cleavage fluorescence. calls only. 0.27% of 290,000 active. AID 2563, 2010;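 active = fall in fluorescence gain of 50% or more versus controls, with final raw signal at or below 3038400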;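 also: plate controls were neutral control wells for no effect and wells lacking membranes for full effect; tested at 10 µM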
Target sequence (Q03530 whole entry, looked up): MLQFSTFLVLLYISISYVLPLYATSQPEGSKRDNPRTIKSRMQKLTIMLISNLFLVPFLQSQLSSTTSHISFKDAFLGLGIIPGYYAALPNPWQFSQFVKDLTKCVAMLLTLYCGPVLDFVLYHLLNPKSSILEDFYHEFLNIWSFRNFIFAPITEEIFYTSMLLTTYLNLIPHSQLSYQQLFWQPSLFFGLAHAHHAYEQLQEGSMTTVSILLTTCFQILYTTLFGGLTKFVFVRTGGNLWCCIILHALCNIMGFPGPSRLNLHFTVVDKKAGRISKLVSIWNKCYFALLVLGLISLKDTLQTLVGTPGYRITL
eIF4H inh – human eIF4H binding inhibitors, primary screen, translation initiation inhibitor project, biochemical, uHTS, fluorescence polarization | inhibition, % at 35 µM | Eukaryotic translation initiation factor 4H (Homo sapiens), Q15056 | 0.94% of 290,000 active | eIF4H fluorescence polarization binding assay;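 active = 50% or more with normal probe brightness, or confirmed in later tests; about a fifth of its hits are not listed in these tables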;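 also: calls also rest on retests at 20 µM and on dose response follow-up; 0% = protein and probe with vehicle and 100% = probe without protein; strong numbers were not always called active; many hits fall short of the cut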
PABP polyA inh – PABP poly(A) RNA binding inhibitors, primary screen, biochemical, fluorescence polarization, uHTS; Polyadenylate-binding protein 1 (Homo sapiens), P11940; inhibition, % at 35 µM; 1% of 290,000 active; AID 2014, 2009;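 active = 50% or more with normal probe brightness, or confirmed in later tests; about a fifth of its hits are not listed in these tables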;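 also: calls also rest on retests at 20 µM and on dose response follow-up; controls were probe without protein and protein plus probe with vehicle; some compounds called inactive have numbers as strong as hits; many hits fall short of the cut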
Target sequence (P11940 whole entry, looked up): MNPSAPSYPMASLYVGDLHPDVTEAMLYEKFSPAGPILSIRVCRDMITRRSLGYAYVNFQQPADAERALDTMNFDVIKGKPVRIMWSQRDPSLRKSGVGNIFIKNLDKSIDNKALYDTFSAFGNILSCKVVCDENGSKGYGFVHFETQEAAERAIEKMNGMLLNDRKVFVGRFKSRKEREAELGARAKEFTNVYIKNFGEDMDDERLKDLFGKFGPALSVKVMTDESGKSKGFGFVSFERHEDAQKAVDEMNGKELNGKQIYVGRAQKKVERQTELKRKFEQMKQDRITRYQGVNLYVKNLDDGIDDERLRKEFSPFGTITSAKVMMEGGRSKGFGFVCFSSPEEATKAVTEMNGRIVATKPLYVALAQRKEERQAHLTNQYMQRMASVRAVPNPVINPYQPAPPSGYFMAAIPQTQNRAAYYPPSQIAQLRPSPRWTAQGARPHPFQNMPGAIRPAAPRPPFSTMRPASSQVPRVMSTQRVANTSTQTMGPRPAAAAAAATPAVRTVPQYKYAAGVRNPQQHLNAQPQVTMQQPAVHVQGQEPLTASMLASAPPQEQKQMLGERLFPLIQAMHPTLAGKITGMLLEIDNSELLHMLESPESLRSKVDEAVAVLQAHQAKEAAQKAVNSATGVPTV
HIV Env fusion – inhibitors of HIV-1 Env-driven cell-cell fusion, primary screen, HeLa-JRFL effector, CEM21 target cells, luciferase. AID 651610, 2012. 1.1% of 360,000 active. inhibition, % at 12.3 µM;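 active = mean replicate inhibition score of at least 50 and every replicate individually at or above 50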;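 also: 0% = plate neutral controls and 100% = maraviroc near 300 nM; one replicate is shown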
CSC inhib – cancer stem cell viability inhibitors, primary screen, luminescence | 1.1% of 300,000 active | AID 2717, 2010 | cancer stem cell-like cells viability | inhibition, % at 7.5 µM;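 active = mean at 75% or more and at least half the replicates too; tested in HMLE shEcad cells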;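 also: 0% = median of negative and 100% = median of positive control wells; the first replicate is given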
UUG fidelity – modulators of yeast start codon fidelity, primary screen, whole organism, S. cerevisiae, single point, plate reader. S. cerevisiae UUG-firefly luciferase reporter, luminescence/redox ratio. activity score, % at 18.7 µM. 0.13% of 350,000 active. AID 602363, 2012;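 active = replicate mean at a twofold rise or more, about +100% in these data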;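 also: firefly luciferase made from a UUG start codon reports start codon fidelity; reporter light over untreated wells divided by growth signal over untreated wells; some hits fall short of that in this replicate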
eIF4H inh retest – second read-out of eIF4H inh, no call of its own (marks repeat the call); inhibition, %; compound at 20 µM; confirmation average;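 mean of two retest wells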
PABP polyA inh retest – recorded beside PABP polyA inh, whose call it bears; inhibition, %; compound at 20 µM; confirmation repeats;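 mean of two retest wells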
MT1-MMP act inh RFP – also measured in MT1-MMP act inh; calls as there; RFP signal change, %; measured here: RFP expression control read;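 0 = vehicle wells; hits needed this value within 50% of zero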
Active calls of the source: *; i = inactive; . = not tested or not shown; + = active, no number; & = joins results of further samples; [ ] = dose if it differs, or a comment.

SMILES	MT1-MMP act inh	MT1-MMP act inh RFP	Rce1 inh	eIF4H inh	PABP polyA inh	HIV Env fusion	CSC inhib	UUG fidelity	others
CSc1ncccc1C(=O)NCCc1ccccc1	0	-6	i	-4	2	-3	3	-15
COc1ccc(CNC(=O)c2cc(=O)c3cc(C)ccc3o2)cc1	0	3	i	-2	7	4	1	-15
COc1cc(C(=O)N/N=C(\c2ccccc2)c2ccccn2)cc(OC)c1OC	1	-7	i	5	-9	25	36	.
Cn1c(COc2ccc(Cl)cc2)nnc1SCC(=O)Nc1ccc2c(c1)CCC2	-1	-2	i	1	14	24	-13	-10
COc1ccccc1OCC(O)CN1C(=O)NC(C)(C)C1=O (stereo unspecified)	-2	6	i	5	9	1	-14	-4
Cc1ccc(Nc2nc(N)nc(CSc3nnc(-c4ccncc4)o3)n2)cc1	11	1	.	-5	-6	47	-13	-8
O=C1COc2ccc(N3C(=O)C=CC3=O)cc2N1	.	.	i	1	0	.	89*	.
CC1CN(C)C(C)c2c1oc1ccc([N+](=O)[O-])cc21 (stereo unspecified)	-1	0	i	-8	-4	2	-7	.
Cc1oc2ccc(OCc3c(F)cccc3Cl)cc2c1C(=O)O	-4	-4	i	-4	6	-11	3	.
CC(C)S(=O)(=O)c1cnc(N2CCOCC2)nc1N	-2	1	i	-1	0	1	0	.
CCc1noc(C)c1C(=O)NNC(=O)COc1ccc(C)cc1	2	4	.	.	.	3	4	.
COc1ccc(CNc2ccc([N+](=O)[O-])cc2C)cc1	0	-4	i	-9	6	-466	21	.
CN(C)C(=O)NC(O)C(Cl)Cl (stereo unspecified)	.	.	i	-9	-3	.	-1	.
CCCOC(=O)/C(=C\C=C\c1ccco1)NC(=O)c1ccccc1	-3	4	i	22	11	-13	-14	.
CC1(C)Cc2ccccc2-c2nc3n(c(=O)c21)CCS3	-1	-1	i	-19	1	0	-4	.
CCS(=O)(=O)N1CCC(C(=O)NC2CCCCCCC2)CC1	-1	0	i	-5	-8	-18	-9	-43
Cn1c(=O)oc2cc(S(=O)(=O)N3CCCC(C(=O)NCc4cccs4)C3)ccc21 (stereo unspecified)	-1	-8	i	-7	4	-15	-3	-8
Nc1c(Cl)c(Cl)nc(C(=O)N/N=C/c2cccnc2)c1Cl	-2	-5	i	5	10	13	9	33
CN(C)/C(=N\S(=O)(=O)c1ccc(Br)cc1)c1ccccc1	4	2	i	-6	2	8	-4	-8
O=C(COC(=O)c1cccc(S(=O)(=O)N2CCCCCC2)c1)NCc1ccc(Cl)cc1	-8	-4	.	.	.	-56	.	-3
COc1ccc(/C=C/c2cc(-c3ccc(C)cc3)o[n+]2C)cc1	-27	-24	i	-11	-9	134*	92*	-5
CCCN1CCN(CCCNC(=O)c2cc3c(s2)-c2ccccc2OC3)CC1	1	4	i	-4	-9	12	7	-16
COc1ccc(C(=O)N/N=c2\oc3ccccc3cc2C(N)=O)cc1	2	-3	i	-6	-4	-6	-8	.
Cn1cc(Cc2ccc(C(=O)N3CCCCC3)cn2)c2ccccc21	0	2	.	.	.	15	.	4
N#CCCN(C(=O)COC(=O)c1cc(S(=O)(=O)N2CCOCC2)ccc1Cl)c1ccc(F)cc1	0	1	i	.	.	-10	-11	.
NS(=O)(=O)c1ccc(CCNC(=O)c2ccc(-c3ccccc3)cc2)cc1	2	-2	i	-10	-15	4	.	-17
CC1CCCCC1NC(=O)c1cc2c(=O)n3ccccc3nc2n1C (stereo unspecified)	0	0	i	-16	28	-5	-4	6
O=C1CNC(=O)/C1=C/c1ccc(Br)cc1	-2	0	i	4	10	5	-7	-16
C=CCn1c(Cc2ccc(OC)cc2)nnc1SCC(N)=O	1	4	i	4	-7	-17	1	.
CSC1=N/C(=C/c2ccc(-n3cncn3)cc2)C(=O)N1	-1	1	i	0	3	-21	.	-6

Random excerpt: 3 records from the list
SMILES	MT1-MMP act inh	MT1-MMP act inh RFP	Rce1 inh	eIF4H inh	PABP polyA inh	HIV Env fusion	CSC inhib	UUG fidelity	others
Nc1c(Cl)c(Cl)nc(C(=O)N/N=C/c2cccnc2)c1Cl	-2	-5	i	5	10	13	9	33
Cn1c(=O)oc2cc(S(=O)(=O)N3CCCC(C(=O)NCc4cccs4)C3)ccc21 (stereo unspecified)	-1	-8	i	-7	4	-15	-3	-8
COc1ccc(/C=C/c2cc(-c3ccc(C)cc3)o[n+]2C)cc1	-27	-24	i	-11	-9	134*	92*	-5

The listing continues.
SMILES	MT1-MMP act inh	MT1-MMP act inh RFP	Rce1 inh	eIF4H inh	PABP polyA inh	HIV Env fusion	CSC inhib	UUG fidelity	others
COc1ccc(/C=C2\SC(=S)N(CC(=O)NC3CCS(=O)(=O)C3)C2=O)cc1 (stereo unspecified)	-2	2	i	0	-3	2	3	-13
O=C1CC(c2ccccc2)CC2=C1C=Nc1ccccc1N2 (stereo unspecified)	-4	-18	i	2	-4	6	42	.
CCOC(=O)/C=C1\NC(=O)CS1	4	1	i	-1	5	.	.	-6
FC(F)(F)c1cnc(N/N=C/c2ccncc2)c(Cl)c1	-1	-4	i	-2	-8	0	3	.
COc1ccccc1C(=O)NC1CCN(C(=O)Nc2ccc(C)cc2)CC1	2	1	i	-15	15	16	1	-5
CC(=O)NC(CCS(C)(=O)=O)C(=O)Nc1nccs1 (stereo unspecified)	2	1	i	0	3	.	-10	-8
CCc1c(C2(O)CCCCC2)[nH]c2c(C(=O)OC)cc(Cl)cc12	-2	-2	i	1	7	12	105*	-4
CCCCn1nnc(NC(=O)c2cc3ccccc3o2)n1	5	3	.	-1	8	.	-3	-21
COc1ccccc1-c1sc2cc3c(cc2c1-c1ccc2c(c1)OCO2)OCO3	4	-3	.	.	.	-5	17	5
Cc1ccnn1CC(=O)N/N=C/c1cccs1	1	3	i	-2	-2	-27	5	-8
CCOC(=O)c1sc(S(C)(=O)=O)c2c1CCc1conc1-2	-18	2	i	1	1	13	-15	-16
COc1ccc(C2NC(=O)NC(O)(C(F)(F)F)C2C(=O)c2ccccc2)cc1OC (stereo unspecified)	5	3	i	-2	4	-16	1	-3
CS(=O)(=O)N1N=C(c2ccc(Cl)cc2)CC1c1cccs1 (stereo unspecified)	0	-2	.	0	-4	-38	4	-18
CC(=O)N1c2ccc(S(=O)(=O)NCCC(=O)Nc3ccccc3C)cc2CC1C (stereo unspecified)	1	0	i	5	84	-10	5	-24	eIF4H inh retest=-2;PABP polyA inh retest=-3
CC(C)[C@H](NC(N)=O)C(=O)Nc1ccc2c(c1)CCC2	-6	-5	i	4	2	.	3	-5

Overlap with the part before: three entries, followed by the next part.
SMILES	MT1-MMP act inh	MT1-MMP act inh RFP	Rce1 inh	eIF4H inh	PABP polyA inh	HIV Env fusion	CSC inhib	UUG fidelity	others
CS(=O)(=O)N1N=C(c2ccc(Cl)cc2)CC1c1cccs1 (stereo unspecified)	0	-2	.	0	-4	-38	4	-18
CC(=O)N1c2ccc(S(=O)(=O)NCCC(=O)Nc3ccccc3C)cc2CC1C (stereo unspecified)	1	0	i	5	84	-10	5	-24	eIF4H inh retest=-2;PABP polyA inh retest=-3
CC(C)[C@H](NC(N)=O)C(=O)Nc1ccc2c(c1)CCC2	-6	-5	i	4	2	.	3	-5
O=C(NN=C1CCCCCC1)c1cccs1	-4	1	i	2	-2	3	-7	-29
CN(C)c1ccnc(-n2cccc2/C=N/OCc2cccc(F)c2)c1C#N	-2	-3	i	4	0	.	-7	-9
CSc1ccc(/C=N\NC(=O)CNc2ccc(C)cc2)cc1	3	0	i	-3	-2	1	1	-25
CC(C)NC(=O)N(C)C[C@H]1Oc2ccc(NS(=O)(=O)c3cn(C)cn3)cc2C(=O)N([C@H](C)CO)C[C@@H]1C	1	6	.	.	.	19[16.7 µM]	-9	-7&-2
O=C(CSc1nncc(=O)[nH]1)Nc1cccc([N+](=O)[O-])c1	-4	-1	i	-14	-5	-9	6	-7
Cc1cccc(NC(=O)C2CCCC2)c1	0	6	i	4	5	7	12	-14
CCc1nc2ccc(C(=O)N(C)Cc3ccccc3)cn2c1N(CC)CCN(C)C	-9	2	.	.	.	7	.	-12
O=C(NCC(=O)N1CCN(Cc2c(F)cccc2Cl)CC1)c1cccs1	3	0	.	.	.	1	.	-6
COc1ccc(Cn2nnnc2C(c2cc3ccc(OC)cc3[nH]c2=O)N2CCCCCC2)cc1 (stereo unspecified)	.	.	i	9	38	.	5	1
COC(=O)c1sccc1NC(=O)CN(C)NS(=O)(=O)c1ccc([N+](=O)[O-])cc1	7	4	i	1	5	-35	14	.
COC(=O)c1ccc(Oc2c(C(F)(F)F)oc3c(CN4CCN(C)CC4)c(O)ccc3c2=O)cc1	2	2	i	12	-3	.	-3	-17
O=C(CCCC(=O)N(CC(=O)NC1CCCC1)Cc1ccccc1)Nc1ccccn1	9	4	i	-3	6	.	6	-5
Cc1cc(C)c2c(CN3CCN(c4ccccc4F)CC3)cc(=O)oc2c1	1	-4	.	.	.	-5	.	-6
O=C(COc1ccccc1[N+](=O)[O-])N1CCN(C(=O)c2ccco2)CC1	-3	3	i	3	-17	-8	-6	-14
COc1ccc(C(=O)NCCS(=O)(=O)NCc2ccccc2OC)cc1	-2	1	i	.	.	3	.	-2
CCOC(=O)NC(Nc1sc2c(c1C(=O)OC)CCN(C)C2)(C(F)(F)F)C(F)(F)F	3	8	i	37	22	.	-15	-14
Nc1[nH]c(=O)ncc1F	3	7	i	-1&-6	0&-3	1	-16	40
CN(C(=O)c1cncc(Br)c1)c1c(N)n(Cc2ccccc2)c(=O)[nH]c1=O	0	2	i	.	.	.	-5	-17
NC(=O)c1cnccn1	-2	3	i	7	-1	.	.	-15
O=C(CNC(=O)c1ccc(Br)o1)NNC(=O)c1cccc(Cl)c1	2	3	i	.	.	-14	3	-18
CC(=NCCc1c(C)[nH]c2ccc(OCc3ccccc3)cc12)C1=C(O)CC(c2ccccc2)CC1=O (stereo unspecified)	-8	-14	i	-3	-3	16	12	.
CCN(CC)CCCNC(=O)c1cn(C)c(=O)c2c1c1ccccc1n2C	0	2	i	34	32	30	14	-18
CC1(C)Cc2c(cnn2-c2cccc(F)c2)C(NC(=O)CCc2cnccn2)C1 (stereo unspecified)	1	1	i	-2	-6	-2	-7	-1
CCOc1ccc(NC(=O)Cc2c(C(=O)O)n(C)c3ccccc23)cc1	0	2	i	6	7	2	-2	-17
CC(=O)Oc1ccc2oc(/C=C/N(C)C)c([N+](=O)[O-])c2c1	45*	1.5*	i	-2	3	-72	-2	.
CCOc1cccc(-c2nnc3sc(COc4ccc(C)cc4)nn23)c1	-2	3	i	3	3	.	26	-9
O=C(NNS(=O)(=O)c1ccc(F)cc1)c1ccc([N+](=O)[O-])cc1Cl	-3	-1	i	-5	15	-16	-4	0
NC(=O)CSC1=Nc2ccccc2C2=NC(c3ccccc3)C(=O)N12 (stereo unspecified)	0	1	+	8	-12	14	-6	.
CCc1ccc(Nc2nnc(SCc3cc(=O)n4ccsc4n3)s2)cc1	-9	-7	i	-6	-12	.	-27	.
CC1=[N+](CC(=O)c2ccccc2)CCn2cccc21	-3	6	.	27	42	-16	11	.
CC(NS(=O)(=O)c1ccc(CCC(=O)NCc2cccnc2)cc1)c1ccccc1 (stereo unspecified)	5	-3	i	3	8	10	0	-15
O=C(NCc1cccs1)C1CCCN(c2ncccn2)C1 (stereo unspecified)	3	1	i	3	0	-29	-3	-11
CCN(CC)S(=O)(=O)c1ccc2nc(NC(=O)c3cccs3)sc2c1	2	-4	i	-19	-9	.	7	-7

Screens (PubChem)
